Yeast superoxide: reduction of superoxide in aged yeast, primary screen, HTS. 330,000 compounds, 0.18% hits. AID 2690, 2010. S. cerevisiae aged cells, superoxide DHE fluorescence; hits give low values. superoxide response (% of plate mean), % at 10 µM;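 active means superoxide response under a set limit, about three screen SD below normal, cut at about 65% in these data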;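 further: yeast aged for seven days with compound at 30 °C before DHE staining; 100% = average MFI of all compound-treated wells on the plate with controls excluded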
LAP4 TOR yeast: modulators of LAP4-GFP expression in yeast, primary screen, S. cerevisiae, multiplex flow cytometry, MLPCN library | GFP response vs DMSO, % at 10 µM | 320,000 compounds, 0.34% hits | 3 h; median GFP as percent of DMSO wells;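 active means GFP response vs DMSO above a set limit, about the screen mean plus 3 SD, cut at about 150% in these data; inconclusive means under 70 cell events counted for the yeast strain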
MEP2 TOR yeast: modulators of MEP2-GFP levels in yeast, primary screen, S. cerevisiae, multiplex flow cytometry, MLPCN library; GFP response vs DMSO, % at 10 µM; AID 2016, 2009; S. cerevisiae MEP2-GFP strain, 3 h; 100% = DMSO control level; 330,000 compounds, 0.51% hits;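 active means GFP response versus DMSO above a set limit, roughly screen mean plus 3 SD, cut at about 180% in these data; inconclusive means fewer than 70 cells counted for a yeast strain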;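 further: median GFP fluorescence of the barcode-gated MEP2-GFP cells per well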
procasp3 activ: activators of human procaspase-3 D3A mutant, primary screen, biochemical, absorbance, PC-3 D3A mutant, single concentration; Caspase-3 (Homo sapiens), P42574; recombinant procaspase-3 D3A, Ac-DEVD-pNA absorbance 405 nm; activation, % at 8.5 µM; 330,000 compounds, 0.11% hits; AID 463141, 2010;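 active means activation above the mean of all tested compounds plus 3 SD, cut at about 21% in these data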;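 further: 0% = DMSO alone and 100% = DMSO wells spiked with extra 5 µM PC-3 D3A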
Target sequence (P42574 whole entry D9A/D28A/D175A): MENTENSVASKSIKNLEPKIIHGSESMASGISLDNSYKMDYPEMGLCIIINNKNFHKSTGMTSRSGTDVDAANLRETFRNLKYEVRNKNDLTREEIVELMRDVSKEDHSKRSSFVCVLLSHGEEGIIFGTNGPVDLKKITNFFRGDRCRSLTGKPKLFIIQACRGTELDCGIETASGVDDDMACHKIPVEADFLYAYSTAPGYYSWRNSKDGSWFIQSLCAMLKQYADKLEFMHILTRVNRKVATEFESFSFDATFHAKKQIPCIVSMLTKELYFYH
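Technique: 405 nm absorbance of p-nitroaniline, reads at 0 and 120 min; Test system: Procaspase-3 D3A mutant; Incubation: 1 h enzyme-compound preincubation, then 2 h substrate reaction, 25 °C; Repeats: singlicate, each compound tested once; Benchmarks: low control DMSO wells, high control DMSO plus 5 µM PC-3 D3A.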
JMJD2C inh: inhibitors of GASC-1 histone demethylase, primary screen, biochemical, fluorescence, DELFIA europium; AID 2099, 2009; inhibition, % at 2.35 µM; Lysine-specific demethylase 4C (Homo sapiens), Q9H3R0; 330,000 compounds, 0.069% hits; GST-JMJD2C(1-420) H3K9me3 demethylation;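 active means more than half of a compound's replicate wells show inhibition beyond 50%, single wells judged on their own value; inconclusive means some, but no more than half, of replicates pass 50% inhibition; inactive means no replicate passes 50% inhibition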;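 further: signal counts dimethyl H3K9 product captured on neutravidin plate; 0% = median of DMSO wells and 100% = 0.3 times that DMSO median; strong numbers were not always called active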
RPL19A TOR yeast: RPL19A-GFP expression modulators in yeast, primary screen, cell-based, S. cerevisiae, multiplex flow cytometry, MLPCN; S. cerevisiae RPL19A-GFP strain, 3 h; hits give low values; percent response vs DMSO, % at 10 µM; 330,000 compounds, 0.3% hits; AID 2025, 2009;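 active means percent response vs DMSO below 50%; inconclusive means fewer than 70 events counted for the yeast strain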;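 further: median channel GFP fluorescence of the barcoded RPL19A-GFP strain; ratio of sample median GFP to plate DMSO average so 100% = DMSO; lower means less RPL19A-GFP as with rapamycin TOR inhibition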
Active calls of the source: *; i = inactive; ? = inconclusive; nt = not tested or not shown; & = joins results of further samples. An excerpt; rates above refer to the full screens.

molecule	JMJD2C inh	procasp3 activ	LAP4 TOR yeast	Yeast superoxide	MEP2 TOR yeast	RPL19A TOR yeast
Nc1ccc([As](=O)(O)O)cc1	-4	6	121	99	94	100
O=c1[nH]c2ccccc2n1CCCN1CCC(n2c(=O)[nH]c3cc(Cl)ccc32)CC1	-4	4	107	95	105	99
C[C@]12CC[C@H](O)C[C@H]1CC[C@@H]1[C@@H]2CC[C@]2(C)C(=O)CC[C@@H]12	nt	4	127	48*	97	98
Clc1ccc(COC(Cn2ccnc2)c2ccc(Cl)cc2Cl)c(Cl)c1 (centres undefined)	-10	6&10	?	163&94	110&90	?
CN[C@H](C)[C@H](O)c1ccccc1	-6	3	105	81	95	105
CCCCCCCCC(=O)NCc1ccc(O)c(OC)c1	nt	2	129	81	98	97
C[C@@H]1C[C@@H]([C@H](O)CC2CC(=O)NC(=O)C2)C(=O)[C@@H](C)C1	1	8	89	i	96	49*
[Cl][Pt+2][Cl].[NH-]C1CCCCC1[NH-] (centres undefined)	nt	-19	112	107	95	104
CNCCC(Oc1ccc(C(F)(F)F)cc1)c1ccccc1 (centres undefined)	-10	0	126	91	100	102

Eight consecutive entries already listed:
molecule	JMJD2C inh	procasp3 activ	LAP4 TOR yeast	Yeast superoxide	MEP2 TOR yeast	RPL19A TOR yeast
O=c1[nH]c2ccccc2n1CCCN1CCC(n2c(=O)[nH]c3cc(Cl)ccc32)CC1	-4	4	107	95	105	99
C[C@]12CC[C@H](O)C[C@H]1CC[C@@H]1[C@@H]2CC[C@]2(C)C(=O)CC[C@@H]12	nt	4	127	48*	97	98
Clc1ccc(COC(Cn2ccnc2)c2ccc(Cl)cc2Cl)c(Cl)c1 (centres undefined)	-10	6&10	?	163&94	110&90	?
CN[C@H](C)[C@H](O)c1ccccc1	-6	3	105	81	95	105
CCCCCCCCC(=O)NCc1ccc(O)c(OC)c1	nt	2	129	81	98	97
C[C@@H]1C[C@@H]([C@H](O)CC2CC(=O)NC(=O)C2)C(=O)[C@@H](C)C1	1	8	89	i	96	49*
[Cl][Pt+2][Cl].[NH-]C1CCCCC1[NH-] (centres undefined)	nt	-19	112	107	95	104
CNCCC(Oc1ccc(C(F)(F)F)cc1)c1ccccc1 (centres undefined)	-10	0	126	91	100	102

Compound activity (PubChem)
